# PABP FP inh: PABP-poly(A) binding inhibition; P11940; PABP-poly(A) RNA binding, fluorescence polarization; inhibition, % at 35 µM; 290,000 tested, 1% active; AID 2014;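 active = 50% or more with normal probe brightness, or confirmed in later tests; inconclusive = above 50% with abnormal brightness, or retests that disagree; inactive = below 50% or failed in later tests; about a fifth of its hits are not listed in these tables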;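 also: calls also rest on retests at 20 µM and on dose response follow-up; controls were probe without protein and protein plus probe with vehicle; some compounds called inactive have numbers as strong as hits; many hits fall short of the cut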
# MT1-MMP act inh: blocks activation of human MT1-MMP. P50281. HT1080 RFP-PRO-GFP cells, GFP/RFP ratio fluorescence, overnight; percent of plate control window, DMSO zero. GFP/RFP ratio change, % at 20 µM. 360,000 tested, 0.061% active;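 active = GFP/RFP ratio change of at least 30% with cell ATP level not reduced by more than half and red fluorescence within 50% of control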; also: strong numbers were not always called active
#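 Read-out: GFP/RFP fluorescence ratio; Test system: RFP-PRO-GFP reporter HT1080 cells; Compound dosing: single-point 20 µM compound, 1% DMSO; Times: overnight compound exposure at 37 °C.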
# Env fusion inh: inhibitors of HIV Env-mediated cell fusion. HeLa-JRFL Env/CEM21 cell fusion, luciferase. inhibition, % at 12.3 µM. 360,000 tested, 1.1% active;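 active = mean replicate inhibition score of at least 50 and every replicate individually at or above 50; inconclusive = only one of the two criteria met; inactive = mean below 50 and not all replicates reaching 50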;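 also: 0% = plate neutral controls and 100% = maraviroc near 300 nM; one replicate is shown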
# Rce1 inh: yeast Ras-converting enzyme inhibition. Q03530. yeast membranes, quenched prenylated peptide cleavage fluorescence. calls only. 290,000 tested, 0.27% active;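 active = fall in fluorescence gain of 50% or more versus controls, with final raw signal at or below 3038400; inconclusive = same 50% fall but final raw signal above 3038400; inactive = fall in fluorescence gain under 50%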;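 also: plate controls were neutral control wells for no effect and wells lacking membranes for full effect; tested at 10 µM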
# Target sequence (Q03530 whole entry, looked up): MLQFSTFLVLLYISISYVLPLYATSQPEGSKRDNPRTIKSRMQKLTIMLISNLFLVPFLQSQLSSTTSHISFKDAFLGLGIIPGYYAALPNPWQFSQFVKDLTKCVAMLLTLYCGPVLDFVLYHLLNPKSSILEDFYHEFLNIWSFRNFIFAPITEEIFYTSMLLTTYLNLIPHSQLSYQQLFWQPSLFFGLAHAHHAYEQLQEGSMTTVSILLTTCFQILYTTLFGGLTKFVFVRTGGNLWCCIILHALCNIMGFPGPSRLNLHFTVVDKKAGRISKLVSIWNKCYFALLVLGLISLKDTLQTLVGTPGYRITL
# CSC inhib: blocks cancer stem cells | AID 2717 | inhibition, % at 7.5 µM | cancer stem cell-like cells viability, luminescence | 300,000 tested, 1.1% active;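 active = mean at 75% or more and at least half the replicates too; inconclusive = mean and replicates disagree; tested in HMLE shEcad cells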;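 also: 0% = median of negative and 100% = median of positive control wells; the first replicate is given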
# eIF4H FP inh: inhibitors of RNA binding by human eIF4H; Q15056; eIF4H fluorescence polarization binding assay; inhibition, % at 35 µM; 290,000 tested, 0.94% active; AID 2012;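 active = 50% or more with normal probe brightness, or confirmed in later tests; inconclusive = above 50% with abnormal brightness, or retests that disagree; inactive = below 50% or failed in later tests; about a fifth of its hits are not listed in these tables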;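 also: calls also rest on retests at 20 µM and on dose response follow-up; 0% = protein and probe with vehicle and 100% = probe without protein; strong numbers were not always called active; many hits fall short of the cut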
# Yeast UUG start: modulators of start codon recognition fidelity in yeast | activity score, % at 18.7 µM | S. cerevisiae UUG-firefly luciferase reporter, luminescence/redox ratio | 350,000 tested, 0.13% active;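 active = replicate mean at a twofold rise or more, about +100% in these data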;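 also: firefly luciferase made from a UUG start codon reports start codon fidelity; reporter light over untreated wells divided by growth signal over untreated wells; some hits fall short of that in this replicate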
# MT1-MMP act inh RFP: also measured in MT1-MMP act inh; calls as there; RFP signal change, %; measured here: RFP expression control read;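 0 = vehicle wells; hits needed this value within 50% of zero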
# The depositor's hits bear a star; i = inactive; ? = inconclusive; / = not tested or not shown.
SMILES,PABP FP inh,MT1-MMP act inh,MT1-MMP act inh RFP,Env fusion inh,Rce1 inh,CSC inhib,eIF4H FP inh,Yeast UUG start
Cc1cc(NC(=O)CCC(=O)N(CCC(C)C)C(C(=O)NC2CCCC2)c2cccnc2)no1 (stereo unspecified),4,0,2,/,i,12,-2,-10
COc1ccc(NS(=O)(=O)c2cc(OC)ccc2NC(=O)c2cc(C)oc2C)cc1,3,4,-5,/,i,57,-2,9
COC(=O)CN(C(=S)Nc1ccc(Cl)cc1)C1CC(=O)N(c2ccc(OC)cc2)C1=O (stereo unspecified),5,-4,2,-4,i,-5,3,15
Cc1cc(Cl)c(S(N)(=O)=O)cc1OCC(=O)NC1CCCCC1,-8,2,2,-14,i,4,-6,-21
CCCc1nc2c(C)cc(Br)cn2c1Cc1ccccc1,/,-4,1,6,/,/,/,21
CCOc1ccc(NC(=NCc2ccc3c(c2)OCO3)SC2CC(=O)N(c3ccc(OCC)cc3)C2=O)cc1 (stereo unspecified),-6,-1,-5,-87,i,22,-10,-17
O=S(=O)(O)c1ccc(NN=Cc2ccccc2O)cc1,/,-1,3,-4,/,/,/,5
CCCCC(=O)Nc1cc(-c2nc3ncccc3o2)ccc1C,-81,3,3,12,i,-4,1,-20
N#CCCN(Cc1ccccc1)C(=O)Nc1ccccc1,-11,-2,-5,2,i,/,-4,-20
C=CCN1C2CCCC1CC(NC(=S)Nc1cccc(OC)c1)C2 (stereo unspecified),0,0,0,9,i,-5,-2,/
Cc1nc(N)nc(N(C)c2ccccc2)c1Br,/,5,-9,-328,/,/,/,-5
O=C(/C=C/c1ccccc1)NNC(=O)c1cccc(Cl)c1,1,1,1,-9,i,-10,-2,-13
CCN(CC)S(=O)(=O)c1cccc(-c2nnc(SCC(N)=O)n2CCc2ccccc2)c1,-3,14,3,26,i,-2,-3,-10
C=CCOc1ccc(/C=C/C(=O)OCC(=O)N(C)CC(=O)Nc2ccc(F)cc2)cc1,/,5,3,11,i,-4,/,-12
Cc1ccc(S(=O)(=O)CC(=O)N2CCCC2)cc1,-3,-5,1,/,i,-6,0,-21
COc1ccc(-c2cc3c(=O)n(CC(=O)NCCCN4CCC(Cc5ccccc5)CC4)ncn3n2)cc1,3,2,-18,5,i,51,0,-56
CC1(C)Cc2c(sc3c2c(=N)n(Cc2ccco2)c(=O)n3Cc2ccc(Cl)cc2)CO1,7,-6,-17,/,i,18,-1,3
O=C(Nc1ccc(O)cc1)c1ccc(C(=O)c2ccccc2)o1,3,5,1,38,i,22,-1,-23
CSCCC(Nc1ccc(S(=O)(=O)N2CCOCC2)cc1[N+](=O)[O-])C(=O)OCC(=O)N(C(C)C)C(C)C (stereo unspecified),-9,5,-1,7,i,-13,0,/
CC(/C=C/c1ccc(N(C)C)cc1)=N\N=C1\NC(=O)CC(C(=O)Nc2ccccc2)S1 (stereo unspecified),-2,-8,3,-8,i,0,?,/
Cc1ccc(NC(=S)NCc2ccccc2Cl)c(C)c1,5,0,-1,7,i,-16,-6,/
Nc1ccc(S(=O)(=O)c2ccccc2)nc1,-4,1,1,2,i,-11,-1,-8
O=C(COC(=O)Cc1ccc(S(=O)(=O)N2CCOCC2)s1)NCCc1ccccc1,20,4,-4,/,i,-21,8,-11
O=C(Nc1ccc(Cl)cn1)c1ccccc1F,2,4,5,i,i,28,-3,9
Cc1cccc(OCC(=O)N(Cc2ccccc2)c2c(N)n(Cc3ccccc3)c(=O)[nH]c2=O)c1,/,5,4,-11,/,/,/,-6
SMILES,PABP FP inh,MT1-MMP act inh,MT1-MMP act inh RFP,Env fusion inh,Rce1 inh,CSC inhib,eIF4H FP inh,Yeast UUG start
Cc1ccc(S(=O)(=O)N=Nc2c(O)[nH]c3ccccc23)cc1,8,1,6,-40,i,-5,-6,-10
O=C(NCc1ccccc1Cl)c1ccncc1,11,0,0,12,i,-12,-11,11
CC(C)CCNC(=O)c1ccc(Cl)c(N)c1,-5,/,/,/,i,-2,-1,/
Cc1ccc(S(=O)(=O)c2cc(C#N)c(=O)[nH]c2N)cc1,7,-2,5,-425,i,-9,25,-19
O=C(NCC1CCCO1)c1ccc[nH]1 (stereo unspecified),6,0,7,13,i,-13,44,0
CC1=NN(C(C#N)c2ccc(F)cc2)C(C)(C)C1 (stereo unspecified),-2,-1,2,-10,i,-12,0,/
COc1ccccc1OCCCC(=O)Nc1nccs1,-4,1,3,-41,i,-4,-10,/
O=C(N/C(=C\c1ccc([N+](=O)[O-])cc1)C(=O)N1CCCCC1)c1ccc(Br)o1,-1,-1,-3,-32,i,-24,-6,-15
COC(=O)c1ccc(C23CC4(C2)[C@H](CN(CC2CCCCC2)[C@@H]4c2ccccc2)C3c2ccc(C(F)(F)F)cc2)cc1 (stereo partly specified),-10,/,/,-26,i,20,8,/
S=c1[nH]cnc2scc(-c3ccccc3)c12,-12,0,3,-11,i,3,-14,-22
O=C(c1ccccc1)N1CCN(C(=O)c2ccccc2Br)CC1,-2,0,3,-11,i,-5,7,-15
O=C(Nc1ccccc1C(=O)N/N=C/c1ccco1)c1ccccc1Cl,-6,4,4,-250,i,-5,-11,-22
Cc1ccc2c(c1)C(=O)CC(O)(C(F)F)O2 (stereo unspecified),-10,1,3,-4,i,-9,2,/
CS(=O)(=O)c1ccc(Cl)c(NC(=O)Cc2c(Cl)cccc2Cl)c1,8,3,1,-1,i,/,13,-8
Cc1ccc(C)c(NC(=O)Cc2nc(CNCC(C)C)cs2)c1,2,-1,3,11,/,-8,12,5
CC1CCCC(NC(=O)COC(=O)CN2C(=O)C3CCCCC3C2=O)C1C (stereo unspecified),1,2,3,-9,i,-2,4,/
CCCCN(C)C(=O)c1[nH]c(C(F)(F)F)nc1-c1ccccc1,/,0,0,-11,/,/,/,-9
CCCn1c(SCC(=O)NCc2ccc(OC)cc2)n[nH]c1=O,-7,-2,1,-12,i,-13,1,4
N#CC1(NC(=O)COc2ccc(S(=O)(=O)N3CCCC3)cc2[N+](=O)[O-])CCCCC1,/,1,0,4,i,4,/,11
COc1cc2c(cc1OC)C(C(=O)NCCN1CCOCC1)C1c3ccccc3CCN1C2=O (stereo unspecified),-4,0,2,-67,i,12,6,10
O=c1cc(CN2CCCCCC2)nc2sccn12,-3,-1,3,3,i,0,6,/
O=C(CCCn1c(SCC(=O)Nc2ccccc2C(F)(F)F)nc2ccccc2c1=O)NCC1CCCO1 (stereo unspecified),0,-1,6,-5,i,2,-11,-21
CC(NC(=O)CSc1nnc2n1CCCCC2)c1ccccc1Cl (stereo unspecified),/,-2,1,/,/,-5,/,-4
O=C(NCc1ccccc1F)c1ccc2ccccc2n1,-2,-1,2,-8,i,12,-9,-6
Cc1ccc(-c2cc(-c3cccs3)[nH]n2)c(O)c1,-3,/,/,/,i,1,2,/

# A draw from above in order of molecular weight, ascending:
SMILES,PABP FP inh,MT1-MMP act inh,MT1-MMP act inh RFP,Env fusion inh,Rce1 inh,CSC inhib,eIF4H FP inh,Yeast UUG start
O=c1cc(CN2CCCCCC2)nc2sccn12,-3,-1,3,3,i,0,6,/
Cc1ccc(C)c(NC(=O)Cc2nc(CNCC(C)C)cs2)c1,2,-1,3,11,/,-8,12,5
CCCn1c(SCC(=O)NCc2ccc(OC)cc2)n[nH]c1=O,-7,-2,1,-12,i,-13,1,4
CC(NC(=O)CSc1nnc2n1CCCCC2)c1ccccc1Cl (stereo unspecified),/,-2,1,/,/,-5,/,-4
O=C(c1ccccc1)N1CCN(C(=O)c2ccccc2Br)CC1,-2,0,3,-11,i,-5,7,-15
CC1CCCC(NC(=O)COC(=O)CN2C(=O)C3CCCCC3C2=O)C1C (stereo unspecified),1,2,3,-9,i,-2,4,/
CS(=O)(=O)c1ccc(Cl)c(NC(=O)Cc2c(Cl)cccc2Cl)c1,8,3,1,-1,i,/,13,-8

# Later entries
SMILES,PABP FP inh,MT1-MMP act inh,MT1-MMP act inh RFP,Env fusion inh,Rce1 inh,CSC inhib,eIF4H FP inh,Yeast UUG start
CCN(CC)CCCNC(=S)N1CCn2c(nc3ccccc32)C1,-3,6,9,/,i,-15,4,-21
O=C(O)/C=C/c1ccc(S(=O)(=O)N(CCO)CCO)cc1,5,0,5,-5,i,-17,-3,/
CC(Oc1ccc(C(C)(C)C)cc1)C(=O)NC1CC(C)(C)NC(C)(C)C1 (stereo unspecified),-1,-1,3,-225,i,-6,5,-21
CCOC(=O)c1c(C)[nH]c(C(=O)CN2C(=O)C(=O)N(CC(C)C)C2=O)c1C,5,3,4,5,i,7,0,/
COc1cc(-c2nc3ccc(N4CCN(C)CC4)cc3[nH]2)cc(OC)c1OC,-13,4,-1,-7,?,-10,-2,/
Cc1[nH]nc2c1C(c1cccs1)C1=C(CC(C)(C)CC1=O)N2 (stereo unspecified),-4,-1,1,-18,i,0,0,/
CCOc1ncccc1C(=O)Nc1ccc(-c2ccc3nnc(C)n3n2)cc1,16,-1,-1,-72,i,-14,2,/
COc1cc2c(cc1OC)CN(C(=O)/C=C/c1cccs1)CC2,-8,-11,-15,-109,i,57,-6,/
CC(=O)Nc1ccc(/C=N/NC(=O)c2cc(-c3ccco3)nc3ccccc23)cc1,5,2,-3,-23,i,-6,7,-6
COc1ccc(S(=O)(=O)N(C)CC(=O)NC2CCCCC2)cc1Cl,1,0,0,-14,i,3,-4,-14
CCn1c(SCC(=O)Nc2ccc(F)cc2)nnc1-c1cnccn1,-6,-5,-3,-5,i,-13,-5,-11
Cc1ccc(CN2C(=O)CSC2c2ccccc2F)cc1 (stereo unspecified),-6,1,-3,7,i,-3,-5,-14
CS(=O)(=O)NNC(=O)c1csc(Cc2c(Cl)sc3ccc(Cl)cc23)n1,-4,2,-1,6,i,-5,4,/
COc1ccc(/C=C/C(=O)OCC(=O)N2CCCC2)c(OC)c1,/,-3,-4,11,/,-2,/,-4

# Full records as entered above:
# CCn1c(SCC(=O)Nc2ccc(F)cc2)nnc1-c1cnccn1 as listed: PABP FP inh: -6; MT1-MMP act inh: -5; MT1-MMP act inh RFP: -3; Env fusion inh: -5; Rce1 inh: i; CSC inhib: -13; eIF4H FP inh: -5; Yeast UUG start: -11
# COc1ccc(S(=O)(=O)N(C)CC(=O)NC2CCCCC2)cc1Cl as listed: PABP FP inh: 1; MT1-MMP act inh: 0; MT1-MMP act inh RFP: 0; Env fusion inh: -14; Rce1 inh: i; CSC inhib: 3; eIF4H FP inh: -4; Yeast UUG start: -14

# Single values from above:
# COc1cc2c(cc1OC)CN(C(=O)/C=C/c1cccs1)CC2 @ MT1-MMP act inh RFP: -15
# COc1cc(-c2nc3ccc(N4CCN(C)CC4)cc3[nH]2)cc(OC)c1OC @ MT1-MMP act inh: 4
